WNV protease inh: blocks West Nile virus NS2B-NS3 protease activity. AID 577. z-score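 (tested at a level between 10 and 100 µM)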. WNV NS2B-NS3 protease, fluorogenic substrate Ex360/Em465; stronger effect = lower value. 65,000 tested, 0.18% active. P06935;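 active = z-score at -3 or under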;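 also: score is relative to mean and spread of the compound wells of a plate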
Target sequence (P06935 1371-1501 limits assumed): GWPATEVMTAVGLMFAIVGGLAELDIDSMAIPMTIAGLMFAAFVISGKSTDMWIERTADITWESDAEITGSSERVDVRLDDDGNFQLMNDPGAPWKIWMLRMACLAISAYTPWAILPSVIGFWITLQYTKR
Target sequence (P06935 1502-1679 limits assumed): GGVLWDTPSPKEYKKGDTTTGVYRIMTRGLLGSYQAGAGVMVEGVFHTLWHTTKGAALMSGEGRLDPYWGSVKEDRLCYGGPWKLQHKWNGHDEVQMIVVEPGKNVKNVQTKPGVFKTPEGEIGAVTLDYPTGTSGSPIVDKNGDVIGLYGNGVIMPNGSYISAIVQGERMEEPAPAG
Hsc70: Hsc70 inhibitors, probe displacement, primary screen, biochemical, fluorescence polarization (AID 568) | 83,000 tested, under 10 active | one-dose displacement, % at 20 µM; IC50 in µM for titrated hits | Hsc70 fluorescence polarization, probe displacement; higher % means a stronger effect; strong numbers were not always called active;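 active = displacement above 50% without optical interference and an IC50 on retest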;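 also: ATPase domain with a fluorescein-tagged ATP probe; 0% = vehicle and 100% = excess ADP; read after one hour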
MT1-MMP promoter: inhibitors of MT1-MMP promoter transcription, cell-based, luciferase reporter, luminescence (AID 618); MT1-MMP promoter luciferase reporter cells, luminescence; calls from a first round at 10 µM; hits with a dose series show EC50 in µM; 87,000 tested, 0.62% active;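 active = over half of the reporter light lost at 10 µM or EC50 under 50 µM; inactive = the rest and hits that failed the dose series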;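 also: actives suppress MT1-MMP promoter-driven transcription so potencies describe inhibitors; HT1080 fibrosarcoma cells; overnight exposure; toxic or luciferase-blocking compounds were not removed from the actives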
* = called active by the depositor; i = inactive; x = not tested or not shown. An excerpt; the hit share may differ from the screen's.

Sample of the layout, 3 compounds:
Under each structure: Hsc70 | WNV protease inh | MT1-MMP promoter
CCCOc1cc(C)c(S(=O)(=O)n2nnc3ccccc32)cc1C
    -1.6% | x | i
CN1CCN(c2ccccc2NC(=O)c2cc(Br)ccc2Cl)CC1
    0.7% | 0.09 | i
CCC1CCCCN1CCCNC(=O)COc1cc(=O)n(C)c2ccccc12 (stereo unspecified)
    1.2% | 2.8 | i

The whole of this part, from the start:
Under each structure: Hsc70 | WNV protease inh | MT1-MMP promoter
CCCOc1cc(C)c(S(=O)(=O)n2nnc3ccccc32)cc1C
    -1.6% | x | i
CN1CCN(c2ccccc2NC(=O)c2cc(Br)ccc2Cl)CC1
    0.7% | 0.09 | i
CCC1CCCCN1CCCNC(=O)COc1cc(=O)n(C)c2ccccc12 (stereo unspecified)
    1.2% | 2.8 | i
N#CC(C(=O)NCc1ccco1)c1nc2ccccc2nc1N1CCOCC1 (stereo unspecified)
    14% | -0.23 | i
COC(=O)c1ccccc1NC(=O)C1CCCCC1C(=O)O (stereo unspecified)
    -1.8% | 0.01 | i
CC1(C)SC2c3ccccc3C(=O)N2[C@@H]1C(=O)NCc1ccco1 (stereo partly specified)
    -0.4% | 0.16 | i
CCC(=O)OCCn1c(=O)c2cc3c(=O)n(CCOC(=O)CC)c(=O)c3cc2c1=O
    -5.3% | 0.92 | i
c1ccc(-c2onc3c2CCCC3)cc1
    -2.2% | x | i
CCOC(=O)CSc1nc2ccccc2n1C(=O)OCC
    -36% | 0.73 | i
Cc1ccc(-c2noc(CNCCCN(C)C)n2)cc1
    1.0% | 0.53 | i
CSc1nc2ccccc2n1CC(=O)Nc1ccccc1
    1.3% | -0.95 | i
Cc1cc(NC(CC(C)C)C(=O)O)nc(Cc2ccccc2)n1 (stereo unspecified)
    -6.0% | 1.5 | i
O=C1c2ccncc2C(=O)N1CO
    3.2% | 0.03 | i
O=P1(O)C=C(c2ccccc2)NC(c2ccccc2)=C1
    -1.7% | -0.25 | i
O=C(O)CCCC(=O)Nc1cccc(C(F)(F)F)c1
    -11% | -0.52 | i
Cc1ccc(C)c(N2CCN(C(c3ccc(N(C)C)cc3)c3nnnn3C(C)(C)C)CC2)c1 (stereo unspecified)
    -5.3% | x | i
Cc1noc(/C=C/N(C)C)c1S(=O)(=O)N1CCCC(C(=O)NCCC2=CCCCC2)C1 (stereo unspecified)
    7.8% | -0.77 | i
CCc1ccc(N=CC2=C(O)CC(c3ccco3)CC2=O)cc1 (stereo unspecified)
    -0.7% | x | i
Oc1ccccc1C1=Nc2nc3ccccc3n2C(c2ccccc2)C1 (stereo unspecified)
    -7.0% | 0.18 | i
CCc1ccc(NC(=O)CCn2c(=O)oc3ccccc32)cc1
    -3.7% | -0.77 | i
CCn1nnnc1SCC(=O)Nc1ccc(OCc2ccccc2)cc1
    4.6% | -0.38 | i
CCC(=O)Nc1cccc(NC(=O)CSc2nnc(C(C)C)n2CC)c1
    -1.7% | -0.27 | i
O=C(c1cc2ccccn2n1)N1CCCC1
    -3.8% | -0.33 | i
O=C(CSCc1c(F)cccc1Cl)NCC1CCCO1 (stereo unspecified)
    -3.1% | x | i
O=C(O)COc1ccc(Cl)cc1CO
    2.1% | -0.92 | i
C1CCC(OCCN2CCN(CCOC3CCCCC3)CC2)CC1
    -1.0% | -0.75 | i
Cc1cc(NC(=O)CCC2CCCC2)no1
    -0.6% | -0.4 | i
O=C(CCN1C(=O)CSC1=O)Nc1ccc(Br)cc1
    -1.8% | x | i
O=C(O)c1ccc(NS(=O)(=O)/C=C/c2ccccc2)cc1O
    1.7% | 1.5 | i
Nc1ccc(S(=O)(=O)c2ccc(Cl)cc2)cc1
    1.9% | x | i

Pulled by structure from above, two records:
Under each structure: Hsc70 | WNV protease inh | MT1-MMP promoter
O=C(c1cc2ccccn2n1)N1CCCC1
    -3.8% | -0.33 | i
CN1CCN(c2ccccc2NC(=O)c2cc(Br)ccc2Cl)CC1
    0.7% | 0.09 | i

An excerpt from above in order of length of the SMILES, lowest first.
Under each structure: Hsc70 | WNV protease inh | MT1-MMP promoter
CSc1nc2ccccc2n1CC(=O)Nc1ccccc1
    1.3% | -0.95 | i
Oc1ccccc1C1=Nc2nc3ccccc3n2C(c2ccccc2)C1 (stereo unspecified)
    -7.0% | 0.18 | i
CC1(C)SC2c3ccccc3C(=O)N2[C@@H]1C(=O)NCc1ccco1 (stereo partly specified)
    -0.4% | 0.16 | i

Carrying on.
Under each structure: Hsc70 | WNV protease inh | MT1-MMP promoter
CC(=O)Nc1ccc(S(=O)(=O)N2CCC(NC(=O)C(Cc3cccn3C)NC(C)=O)CC2)cc1 (stereo unspecified)
    -7.5% | 0.76 | i
O=C(c1cccc2ccccc12)N1CCN(CC2CC=CCC2)CC1 (stereo unspecified)
    -0.7% | 1.4 | i
CCN1CCCC1CNC(=O)CSc1cc(=O)n(C)c2cc(Cl)ccc12 (stereo unspecified)
    5.3% | -0.54 | i
CCOc1ccc(C(=O)OCC(=O)Nc2cc(C)on2)cc1OCC
    -0.4% | x | i
Cc1ccc(C)c(SCC(=O)Nc2nnc(-c3ccccc3)o2)c1
    3.9% | -0.12 | i
COc1ccc(OC)c(S(=O)(=O)N2CCN(C)CC2)c1
    2.0% | 0.28 | i
CCN1CCN(C(=O)C2CC(c3ccc(F)cc3)=NO2)CC1 (stereo unspecified)
    0.9% | 0.16 | i
Cn1c(=O)c2cc(S(=O)(=O)NC(C(=O)NCc3cccnc3)c3ccccc3)ccc2n(C)c1=O (stereo unspecified)
    4.3% | -0.34 | i
O=S(=O)(NC1CC2CCC1C2)c1ccc(Br)s1 (stereo unspecified)
    -1.9% | 0.5 | i
Cc1ccc2c(c1)-c1c(ssc1=S)C(C)(C)N2C(=O)CSc1nncn1C
    -2.8% | -0.7 | i
O=C(NCc1ccco1)c1cnn2c1NC(c1ccc(Br)cc1)CC2C(F)(F)F (stereo unspecified)
    -3.7% | -0.51 | i
CCOC(=O)c1ccc2nc(NC(=O)c3cccs3)sc2c1
    -11% | x | i
O=C(Nc1ccccc1)c1ccc(OC(=O)c2cc3ccccc3o2)cc1
    1.1% | x | i
CCOC(=O)CNC(=O)CSc1ncnc2c1cnn2Cc1ccccc1
    2.1% | 0.45 | i
N#Cc1ccc(-c2csc(NC(=O)C3CC3)n2)cc1
    0.9% | -0.25 | i
CN(Cc1ccccc1)S(=O)(=O)c1ccc(S(=O)(=O)N(Cc2ccc(F)cc2)C2CCCC2)cc1
    4.4% | x | i
COc1cc(C2CC(=O)c3cnc(NC(=O)COc4ccccc4)nc3C2)cc(OC)c1OC (stereo unspecified)
    -3.0% | 1.3 | i
CC(=O)N=c1sc(C(C)(C)C)c(C)n1C
    -2.1% | -0.97 | i
CCC/C(O)=C1\C(=O)CCCC1=NC(C)C(=O)O (stereo unspecified)
    3.0% | -1.4 | i
O=C(c1cnc2n(c1=O)CCS2)N(c1ccccc1)C1CCCCC1
    -5.0% | -0.47 | i
NC(=O)CC(c1ccccc1)c1ccco1 (stereo unspecified)
    5.0% | x | i
CCNC(=O)[C@@H]1CCCN1C(=O)[C@H](CCCN=C(N)N)NC(=O)[C@H](CC(C)C)NC(=O)[C@@H](CC(C)C)NC(=O)[C@H](Cc1ccc(O)cc1)NC(=O)[C@H](CO)NC(=O)[C@H](Cc1c[nH]c2ccccc12)NC(=O)[C@H](Cc1cnc[nH]1)NC(=O)[C@@H]1CCC(=O)N1
    -2.8% | 1.9 | i
C(=C\c1ccccc1)/CN1CCN(c2ncnc3c2oc2ccccc23)CC1
    4.8% | 0.08 | i
COc1ccccc1C(=O)Nc1nc(-c2cccs2)c(NC(C)=O)s1
    6.5% | x | i
CC(C)(C)n1nc2c(c1NC(=O)c1ccc(S(=O)(=O)N3CCCC3)cc1)CS(=O)C2 (stereo unspecified)
    -1.6% | -0.23 | i
NC(=O)CSc1nnc(-c2ccc(S(=O)(=O)N3CCOCC3)cc2)n1Cc1ccccc1
    -3.7% | 1.7 | i
CCCCN(C(=O)c1ccc(Cl)cc1)C1CC2CCC(C1)N2C (stereo unspecified)
    2.2% | 1.8 | i
O=C(CN1CCN(C(=O)N2CCCCC2)CC1)Nc1ccc(F)cc1
    5.9% | -1.1 | i
NS(=O)(=O)c1ccc(-n2nncc2C23CC4CC(CC(C4)C2)C3)cc1
    -6.8% | -1.1 | i
Cc1ccc(CN2C(=O)CCC2C(=O)NCCCN2CCCCC2C)cc1 (stereo unspecified)
    1.2% | 0.47 | i

Going on with the list.
Under each structure: Hsc70 | WNV protease inh | MT1-MMP promoter
O/C(=C\Sc1nnc(Cc2ccccc2)o1)c1ccc(Br)cc1
    3.9% | -0.27 | i
CCOC(=O)c1[nH]c2ccc(OC)cc2c1N=CN(C)C
    -5.5% | 0.36 | i
O=C(Nc1ccc(S(=O)(=O)Nc2nccc(C3Cc4ccccc4C(=O)O3)n2)cc1)c1ccccc1 (stereo unspecified)
    0.4% | x | i
c1ccc(-c2nnc3n2N=C(c2ccc4c(c2)OCO4)CS3)nc1
    2.4% | 0.58 | i
Cc1cccc(OCCCCc2c(C)n[nH]c2C)c1
    5.3% | -0.6 | i
Cc1ccc2cc(CN(Cc3cccs3)Cc3nnnn3CC3CCCO3)c(=O)[nH]c2c1C (stereo unspecified)
    0.2% | 0.16 | i
CCN(CC)CCCn1c(=S)[nH]c2cc(Cl)ccc2c1=O
    0.1% | -0.38 | i
CC(=O)SC(C[N+](=O)[O-])c1cn(C(C)=O)c2ccccc12 (stereo unspecified)
    9.1% | x | i
COc1ccc2c(CC(=O)NCC3CCC(C(=O)O)CC3)cc(=O)oc2c1 (stereo unspecified)
    -1.6% | x | i
CC(=O)Nc1sc2c(c1CN1CCN(C)CC1)CCCC2
    -2.1% | x | i
COc1ccc(-c2noc(CCCC(=O)O)n2)cc1
    4.7% | 0.08 | 0.77µM*
COc1ccc(NC(=O)C2CCCCN2CC(=O)OCc2ccccc2)cc1OC (stereo unspecified)
    -2.2% | -0.52 | i
O=c1[nH]c(NCCO)nc2c1C1(CCCCC1)Cc1ccccc1-2
    1.8% | 1.2 | i
COc1cc(Br)cc2cc(C(=O)N3CCCCC3C)c(=O)oc12 (stereo unspecified)
    6.9% | 0.38 | i
Cc1cccc(N2CCN(C(=O)C(NS(=O)(=O)c3cccs3)c3ccccc3)CC2)c1C (stereo unspecified)
    1.6% | x | i
Nc1cccc(-c2nc3ccccc3[nH]2)c1
    0.9% | -0.74 | i
CC1=C(Sc2nc3ccccc3[nH]2)C(=O)NC(C)(C)C1
    1.8% | 1.3 | i
COC(=O)c1ccc(Cn2cnc3c(cnn3-c3ccc(C)c(C)c3)c2=O)o1
    -1.2% | -0.02 | i
COC(=O)c1ccc(-c2n[nH]c(=O)c3ccccc23)cc1
    3.1% | -0.53 | i
O=C(CN(c1ccc2c(c1)OCCO2)S(=O)(=O)c1ccccc1)NCC1CCCO1 (stereo unspecified)
    5.3% | -0.03 | i
O=C(Cn1nc(-c2cccc(Cl)c2)ccc1=O)Nc1cccnc1
    1.1% | 0.11 | i
CCCn1c2ccccc2c2nnc(SCC(=O)Nc3nnc(CC(=O)OCC)s3)nc21
    -4.3% | x | i
CCOC(=O)C1=C(CN2CCC(C)CC2)NC(=O)NC1c1ccc(Cl)cc1 (stereo unspecified)
    11% | -0.53 | i
CC(C)(C)NC(=O)COC(=O)c1snc(C(=O)NC2CCCCC2)c1N
    -5.0% | 0.27 | i
c1ccc(-n2cnnc2SCc2nc3ccccc3s2)cc1
    -16% | 0.39 | i
COc1ccc(N=C2C(=O)Nc3c(C)cccc32)cc1
    4.8% | -0.98 | i
CCN1CCN(C(c2ccccc2OC)c2nnnn2C2CCCCC2)CC1 (stereo unspecified)
    0.2% | -0.54 | i
O=C(CCn1c(=O)[nH]c2ccsc2c1=O)N1CCc2ccccc2C1
    0.8% | 1.3 | i
O=c1c2ccccc2c(C=NCCc2ccccc2)c(O)n1Cc1ccccc1
    -2.2% | x | i
CC(=O)c1cnc2c(-c3ccccc3)cnn2c1C
    -3.7% | x | i

The results go on.
Under each structure: Hsc70 | WNV protease inh | MT1-MMP promoter
O=C(NC1CCCC1)C(c1ccc(N2CCOCC2)cc1)N(Cc1ccco1)C(=O)c1ccco1 (stereo unspecified)
    -3.6% | 0.51 | i
O=S(=O)(c1ccc2c(c1)OCCO2)N1CCC(c2nc3ccccc3s2)CC1
    0.7% | 1.7 | i
N#Cc1ccc(N2CCN(c3ccc(F)cc3)CC2)cc1
    -0.2% | x | i
Cc1ccc2[nH]c3c(N4CCN(Cc5ccccc5)CC4)ncnc3c2c1
    -1.4% | -0.06 | i
O=c1[nH]c2ccc(S(=O)(=O)N3CCCCC3)cc2[nH]1
    2.8% | 0.61 | i
CC1Cc2nc(SCC(=O)Nc3ccc(F)cc3F)n(C)c(=O)c2S1 (stereo unspecified)
    -3.1% | 0.54 | i
COc1ccc(Cl)cc1S(=O)(=O)Oc1ccc(NC(C)=O)cc1
    3.6% | x | i
CCCn1c(SCC(=O)Nc2nnc(CC)s2)nc2c1c(=O)n(C)c(=O)n2C
    -1.7% | 0.33 | i
Cc1nc(SCC(=O)NCc2ccccc2)c2c(=O)n(C)c(=O)n(C)c2n1
    4.5% | -2 | i
C=CCc1c(C)nc(SCCC)[nH]c1=O
    3.8% | -0.61 | i
CCC(=O)N1CCc2cc(S(=O)(=O)NCCC(=O)N3CCc4ccccc4C3)ccc21
    0.1% | -0.07 | i
CCN(CC)C(=O)CN1CCN(c2ncccn2)CC1
    -3.2% | 0.9 | i
Cc1c(C(=O)Nc2ccc(N3CCOCC3)cc2)oc2ccccc12
    -3.9% | -0.08 | i
Cc1cc(C(=O)Nc2nnc(C(F)(F)F)s2)no1
    6.9% | 0.75 | i
CC(=C/C(=O)O)/C=C/c1ccc(Cl)o1
    3.3% | x | i
